# Source: PubChem BioAssay (Johns Hopkins Ion Channel Center)
# KCNQ2 block – KCNQ2 potassium channel inhibitors, primary screen, cell-based, CHO-K1, FluxOR thallium flux, B-score (AID 2156); actives 1.1% (n = 310,000); 20 min; hits give low values; only compounds with negative scores are shown here; some inactives read as strong as hits; B-score at 10 µM;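 active = fluorescence ratio B-score at most minus 3 library SDs, with starting brightness B-score within 2 library SDs, cut at about -5.5 in these data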
# Target sequence (O88943 whole entry, looked up): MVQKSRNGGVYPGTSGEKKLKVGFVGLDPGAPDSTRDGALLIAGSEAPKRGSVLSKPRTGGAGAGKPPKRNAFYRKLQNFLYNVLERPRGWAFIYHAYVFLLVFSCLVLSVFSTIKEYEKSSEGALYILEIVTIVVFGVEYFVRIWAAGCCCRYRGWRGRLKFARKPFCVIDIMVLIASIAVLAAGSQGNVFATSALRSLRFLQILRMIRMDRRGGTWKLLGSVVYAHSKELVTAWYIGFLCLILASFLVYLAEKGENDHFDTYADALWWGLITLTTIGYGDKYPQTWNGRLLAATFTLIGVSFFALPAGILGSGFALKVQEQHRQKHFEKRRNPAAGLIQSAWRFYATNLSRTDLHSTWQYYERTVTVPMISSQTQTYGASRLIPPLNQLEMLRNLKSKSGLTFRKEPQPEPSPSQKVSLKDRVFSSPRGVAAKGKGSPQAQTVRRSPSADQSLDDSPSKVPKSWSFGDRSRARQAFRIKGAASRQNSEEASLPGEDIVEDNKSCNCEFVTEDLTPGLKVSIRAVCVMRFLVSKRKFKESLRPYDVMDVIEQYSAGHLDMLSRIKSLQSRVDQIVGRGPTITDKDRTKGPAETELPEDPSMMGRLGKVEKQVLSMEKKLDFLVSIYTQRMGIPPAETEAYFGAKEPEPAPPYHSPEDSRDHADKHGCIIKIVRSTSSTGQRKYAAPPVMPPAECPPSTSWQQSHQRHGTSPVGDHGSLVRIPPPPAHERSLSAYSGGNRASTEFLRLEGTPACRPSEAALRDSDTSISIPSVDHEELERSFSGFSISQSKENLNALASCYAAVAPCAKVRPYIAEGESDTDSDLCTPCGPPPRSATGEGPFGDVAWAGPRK
# KCNQ2 block baseline – also measured in KCNQ2 block; calls as there; B-score; measured here: initial fluorescence intensity artifact check;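 brightness before thallium and not channel activity; 0 = typical well and far values either way flag optical interference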
# Numbers without * were called inactive; i = inactive. A portion of the library (hit frequency here may not be typical).
Structure | KCNQ2 block | KCNQ2 block baseline
CCC(C(=O)NCc1ccc(C)cc1)c1ccccc1 (stereo not given) | i | 0.13
COCCNC(=O)CN1CCOc2ccccc21 | i | 0.22
Cc1cccc(OCC(=O)Nc2ccc(C(=O)Nc3ccccc3C(=O)O)cc2)c1C | i | 1.92
C=CCNC(=O)/C(C#N)=C/c1ccc(SC)cc1 | i | 0.14
COc1ccc(CCC(=O)NNC(=O)c2cc(Cl)ccc2OC)cc1 | i | -0.05
CCC(=O)N(Cc1cc2ccccc2[nH]c1=O)c1ccccc1OC | i | -0.87
CN(CC(=O)Nc1ccccc1Cl)C(=O)CSc1nnc(N)s1 | i | -0.68
O=C(Nc1ccccc1)C1=C[C@H](c2ccc3c(c2)OCO3)C[C@H](OCc2ccc(CO)cc2)O1 | i | 0.63
COc1cc(/C=N/NC(=S)NC2CC3C=CC2C3)cc(OC)c1OC (stereo not given) | i | -0.66
CC1=C(C(=O)N2CCOCC2)C(c2ccc(O)cc2)NC(=S)N1 (stereo not given) | i | 0.25
O=C(NCC(c1ccco1)N1CCN(c2ccccc2F)CC1)c1cccs1 (stereo not given) | i | 1.65
N#Cc1cn(-c2cccc(C(F)(F)F)c2)c(=O)[nH]c1=O | i | 0.48
COC(=O)c1ccc(NC(=S)NCCc2ccccc2C)cc1 | i | -0.02
Cc1ccc(C)c(S(=O)(=O)c2c(N)n(/N=C/c3ccco3)c3nc4ccccc4nc23)c1 | i | 0.6
Cc1csc(Nc2ccccc2C(F)(F)F)n1 | i | 1.78
COc1ccccc1C(=O)NNS(=O)(=O)c1ccc(F)cc1 | i | 0.08
O=C(NCCNC(=O)c1ccc(Br)o1)c1cccnc1 | i | 0.53
CN(CC1COc2ccccc2O1)C(=S)Nc1ccccc1 (stereo not given) | i | -0.03
Cc1ccc(NC(=O)COn2nnc3ccc(S(=O)(=O)N(C)C)cc32)cc1F | i | -0.83
CCOC(=O)Cc1c(Sc2ccccc2)c2ccccc2n1C | i | -0.22
COC(=O)c1ccc(/C=C/c2ccc3cccc(OC(C)=O)c3n2)cc1 | i | -1.65
CCOc1ccc2c(c1)C(N(CCN1CCOCC1)C(=O)Nc1ccc(OC)cc1OC)CC(C)(C)O2 (stereo not given) | i | 0.83
NS(=O)(=O)c1cc(C(=O)OC2CCOC2=O)ccc1Cl (stereo not given) | i | 0.43
O=C1C2CCCCN2C(=O)N1CCCCN1CCN(c2cccc(Cl)c2)CC1 (stereo not given) | i | -1.07
Cc1cc(-c2ccccc2)n[nH]1 | i | 1.23
Cc1nn2c3c(cnc2c1-c1ccccc1)C(=O)CCC3 | i | 3.93
CCCNC(=S)N1CCC(c2nc3cc(C)c(C)cc3[nH]2)CC1 | i | 0.62
CC(=O)c1ccc(NC(=O)C2CCN(S(=O)(=O)c3cccs3)CC2)cc1 | i | -0.35
CN(C(=O)CN1C(=O)C2C3CC(C(Br)C3Br)C2C1=O)C1CCCCC1 (stereo not given) | i | -0.84
COCCCn1c(=O)c2sccc2n2c(CCCC(=O)NCc3ccccc3OC)nnc12 | i | 0.55
CCOc1ccccc1N1CCN(C(=O)NC2CCCCC2)CC1 | i | 1.96
O=C(CCCC1=NS(=O)(=O)c2ccccc2N1)N1CCN(c2ccccc2)CC1 | i | 0.7
COc1ccsc1C(=O)NCCN1CCOCC1 | i | 0.12
O=C(CN(C(=O)C1CSC(=O)C1)c1ccccc1F)NCc1ccc2c(c1)OCO2 (stereo not given) | i | 0.93
CN(C)S(=O)(=O)c1ccc(C(=O)Nc2ccccc2[N+](=O)[O-])cc1 | i | -0.07
CC(=O)c1ccc(NC(=O)C2CCC(C)NC2=O)cc1 (stereo not given) | i | 0.57
Cc1cccc(C)c1NS(=O)(=O)c1ccc(NC(=O)c2ccc(Cl)c([N+](=O)[O-])c2)cc1 | i | 0.32
Cc1ccc2nc(-c3ccc4c(c3)OCCO4)cn2c1 | i | 0.79
CN1CCC(N(C)S(=O)(=O)c2ccc(NC(=O)COc3cccc(Cl)c3)cc2)CC1 | i | -1.18
Cn1nnc(NC(=S)NC(=O)c2ccco2)n1 | i | -2.12

# Looked up by compound from the entries so far (3):
Structure | KCNQ2 block | KCNQ2 block baseline
Cc1cccc(C)c1NS(=O)(=O)c1ccc(NC(=O)c2ccc(Cl)c([N+](=O)[O-])c2)cc1 | i | 0.32
Cn1nnc(NC(=S)NC(=O)c2ccco2)n1 | i | -2.12
CN1CCC(N(C)S(=O)(=O)c2ccc(NC(=O)COc3cccc(Cl)c3)cc2)CC1 | i | -1.18

# Further results.
Structure | KCNQ2 block | KCNQ2 block baseline
c1ccc(C2OC3c4cccc5cccc(c45)C3N2c2ccccc2)cc1 (stereo not given) | i | 2.85
O=C(Nc1ccc(NC(=O)c2ccccn2)cc1)C(=O)Nc1ccc2c(c1)OCCO2 | i | -0.46
N#C/C(=C(/O)CN1CCN(c2ccccc2F)CC1)c1nc(-c2ccccc2)cs1 | i | -0.69
CC(C)c1ccc2[nH]c3c(c2c1)CCCC3=O | i | -0.76
COc1ccc(CCNC(=S)N2CCN(S(=O)(=O)c3ccc(F)cc3)CC2)cc1 | i | -0.2
O=C1Nc2ccccc2C1=Nc1ccc(-c2nnc3n2CCCCC3)cc1 | i | -1.14
Cc1ccc(-c2nnn(CC(=O)N(c3ccc(F)cc3)C(C(=O)NC3CCCC3)c3ccco3)n2)o1 (stereo not given) | i | 1.06
CC(=O)NCc1ccc(S(=O)(=O)N2CCN(c3ccccn3)CC2)cc1 | i | 0.09
Cc1ncoc1C(=O)N1CCc2c([nH]c3ccccc23)C1c1ccccc1F (stereo not given) | i | 0.86
O=C(CCNS(=O)(=O)c1ccc(Br)cc1)NCCc1ccc(Cl)cc1 | i | -2.07
Cc1ccc(S(=O)(=O)N2CCCN(C(=O)c3cc4ccccc4[nH]3)CC2)cc1 | i | -0.3
CCN(CC)CCn1c(C)nc2ccccc21 | i | -0.05
CSc1ccc(/C=N/n2c(C)nc3ccccc3c2=O)cc1 | i | 1.89
Cc1nn(Cc2ccc(Cl)cc2Cl)c(C)c1NC(=O)c1sc2ccccc2c1Cl | i | 0.54
O=C(COC(=O)c1ccccn1)Nc1ncc(C(F)(F)F)cc1Cl | i | -0.41
O=C(O)CSc1nnc(COc2ccccc2)n1-c1ccccc1 | i | 1.01
O=C(NCCc1cnc[nH]1)c1cccs1 | i | -0.35
C/C(Cn1nnc([N+](=O)[O-])n1)=N\NC(=O)c1ccc(O)cc1 | i | 1.54
COc1ccccc1CCC(=O)OCC(=O)NC1CCCC1 | i | -0.12
CC(C)CCNC(=O)CCn1c(=S)oc2ccccc21 | i | 2.37

# Another view of 4 compounds above:
> CN(CC1COc2ccccc2O1)C(=S)Nc1ccccc1 (stereo not given)
  KCNQ2 block: i | KCNQ2 block baseline: -0.03

> Cc1ccc(NC(=O)COn2nnc3ccc(S(=O)(=O)N(C)C)cc32)cc1F
  KCNQ2 block: i | KCNQ2 block baseline: -0.83

> CCOC(=O)Cc1c(Sc2ccccc2)c2ccccc2n1C
  KCNQ2 block: i | KCNQ2 block baseline: -0.22

> COC(=O)c1ccc(/C=C/c2ccc3cccc(OC(C)=O)c3n2)cc1
  KCNQ2 block: i | KCNQ2 block baseline: -1.65

# The list goes on.
Structure | KCNQ2 block | KCNQ2 block baseline
COc1ccc(C(Nc2ccccn2)c2c(NC(=O)c3ccco3)sc(C)c2C)cc1 (stereo not given) | i | -0.55
COc1ccc(C(C#N)Nc2ccccc2OC)cc1 (stereo not given) | i | 0.65
CCOc1ccc(NC(=O)c2ccc(N3CC4CC(C3)c3cccc(=O)n3C4)c(NC(=O)CCN3CCOCC3)c2)cc1 (stereo not given) | i | -0.45
O=C(Nc1cccc2ccccc12)C12CC3CC(C1)CC(n1cnc([N+](=O)[O-])n1)(C3)C2 | i | -0.38
C[C@]12C=CC(=O)C=C1CC[C@@H]1C2C(O)C[C@@]2(C)C1CC[C@]2(O)C(=O)COC(=O)CCC(=O)NC(CC(=O)O)C(=O)O (stereo not given in full) | i | 1.89
CCCCCn1c(=O)c2ccccc2n2c(CCl)nnc12 | i | 0.81
NC(=O)c1cc2cc(Cl)ccc2o/c1=N/NC(=O)c1cccs1 | i | -0.03
CN(C)S(=O)(=O)c1ccc(NC(=O)CSc2ncnc3ccccc23)cc1 | i | 3.01
COc1cc(OC)c(N2CC34C=CC(O3)C(C(=O)O)C4C2=O)cc1Cl (stereo not given) | i | 1.18
O=[N+]([O-])c1ccccc1S(=O)(=O)N1CCCc2ccccc21 | i | 0.83
CCN1CCN(C(=O)/C(=C/c2ccco2)NC(=O)c2ccccc2)CC1 | i | -0.06
CC(C)Nc1c(N)c(=O)oc2ccccc12 | i | -0.37
Cc1ccc(-c2nn3c(C)nnc3c3ccccc23)cc1S(=O)(=O)NCc1ccccc1 | i | -1.38
Cc1ccn2c(NC3CCCC3)c(-c3ccccn3)nc2c1 | i | -1.44
COc1ccccc1/C=C/C=N/NC(=O)CN1CCN(S(=O)(=O)c2ccc(C)cc2)CC1 | i | -0.13
CCCCc1c(C)c(C#N)c2nc3ccccc3n2c1Nc1c(C)n(C)n(-c2ccccc2)c1=O | i | 0.05
C(=N\Nc1nc(-c2ccccc2)cs1)/c1ccco1 | i | 0.01
Fc1ccccc1CSc1nnc(-c2cccs2)o1 | i | 1.54
Cc1ccc(S(=O)(=O)NCC(=O)OCC(=O)c2c(N)n(C)c(=O)n(C)c2=O)cc1 | i | 0.11
O=C(COC(=O)c1cccc(S(=O)(=O)N2CCc3ccccc32)c1)NCc1ccco1 | i | 0.16
COc1ccc(-c2cc(C(F)(F)F)nc(S(=O)(=O)CCCC(=O)Nc3cc(C)on3)n2)cc1OC | i | -0.14
COc1ccc(/C=C2\CCC(C3CCCC3)C2=O)cc1OC (stereo not given) | i | -0.24
COc1ccc(NC(=O)CN2c3cccc4cccc(c34)S2(=O)=O)c(OC)c1 | i | 0.67
CC(NC(=S)Nc1ccc(Cl)cc1Cl)C(c1cccs1)N1CCCC1 (stereo not given) | i | -1.28
Cc1nn(C)c(Sc2ccccn2)c1[N+](=O)[O-] | i | 1.96
FC(F)(F)Oc1ccccc1-c1nnc(-c2cccc(C(F)(F)F)c2)o1 | i | 0.79
CC(C)c1ccc(NC(=O)CCCN2C(=S)NC(C)(C)CC2C)cc1 (stereo not given) | i | -0.11
N#Cc1cccc(NC(=O)CN2CCN(Cc3ccccc3)CC2)c1 | i | 0.17
COc1ccc(Cn2c(=O)[nH]c3cc(C(=O)N4CCN(Cc5ccccc5)CC4)ccc3c2=O)cc1 | i | -1.06
COc1ccccc1-n1c(SCC(=O)NCc2ccc3c(c2)OCO3)nc2cc([N+](=O)[O-])ccc21 | i | -0.95
Cc1ccc(NS(=O)(=O)c2ccc(NC(=O)c3ccc(Br)o3)cc2)c(C)c1 | i | 0.1
Cc1nnc(C)n1/N=C/c1c(O)ccc2ccccc12 | i | 0.13
CCC(=O)NC(/C=C/c1ccccc1)c1cc([N+](=O)[O-])c2cccnc2c1O (stereo not given) | i | -2.7
O=S(=O)(Nc1nc2ccc(S(=O)(=O)N3CCCCC3)cc2s1)c1ccccc1 | i | -1.14
COCCN1C(=O)C(=O)/C(=C(/O)c2cccc(OC)c2)C1c1ccncc1 (stereo not given) | i | 0.62
Cc1ccc(CNC(=O)c2ccc(N3CCC4(CC3)CC(c3cccc(Br)c3)=NO4)c(NC(=O)c3ccccc3)c2)cc1 | i | -0.76
N#CC(C#N)=c1ccc2c(c1)N1C(c3ccccc3)=CC(c3ccccc3)C3CCCCC31N=2 (stereo not given) | i | -1.51
CCc1cc(CNC(=O)CC2C(=O)NCCN2Cc2ccc(-c3ccccc3)cc2)on1 (stereo not given) | i | 0.97
Cc1ccc(C(=O)NC2CCCc3ccccc32)o1 (stereo not given) | i | 0.1
CC(Oc1ccc2c(-c3ccccc3)cc(=O)oc2c1)C(=O)NCCCn1ccnc1 (stereo not given) | i | 3.29
CSC1=NCCN1C(=O)c1cccs1 | i | -0.65
O=C(NCc1cccc2ccccc12)Nc1ccccc1 | i | -0.23
COCCC(=O)N1CCC(Oc2ccc(C(=O)NCc3cc(C)n(C)n3)cc2)CC1 | i | 0.01
O=C(Cn1c(=O)c2cccn2c2cccnc21)N1CCN(c2ccc(Cl)cc2)CC1 | -7.64* | 1.49*
Cc1ccc2c(c1)nnn2C1CCN(C(=O)Nc2ccccc2C)CC1 | i | 0.05
O=C(NNC(=S)Nc1ccccc1)c1cccc(S(=O)(=O)N2CCOCC2)c1 | i | 0.12
Cc1ccc(C#CC[N+]2(C)CCCCC2)cc1 | i | 2.67
O=C(Cc1ccc(Br)cc1)N1CCc2ccccc2C1 | i | 0.73
CCCCOc1ccc(CN=C(N)N)cc1Cl | i | -0.51
COc1ccc(C(=O)O/N=C(/c2cccs2)C(C)(C)C)cc1 | i | 0.44
COc1ccc(C)cc1S(=O)(=O)N(C)CC(=O)NC1CC1 | i | -1.2
O=S(=O)(c1ccc2ccccc2c1)N1CCOCC1 | i | 2.41
CCOc1ccc(-n2nc3c(=S)[nH]nc(C)c3c2C)cc1 | i | -0.67
Cc1cc(N2C(=O)C(O)=C(C(=O)c3ccco3)C2c2cccc(Cl)c2)no1 (stereo not given) | i | 0.24
CCOc1ccc(NC(=O)c2c(N)n(C)c(=O)[nH]c2=O)cc1 | i | 0.02
CCNC(=O)CSc1nc2ccccc2c(=O)n1-c1cccc(OC)c1 | i | 0.04
CC(C)(C)c1ccc(S(=O)(=O)NCC(=O)N2CCN(C(=O)c3ccco3)CC2)cc1 | i | -0.06

# An excerpt from above in order of their number in KCNQ2 block baseline, lowest first.
SMILES	KCNQ2 block baseline
CCOc1ccc(-n2nc3c(=S)[nH]nc(C)c3c2C)cc1	-0.67
O=C(NCc1cccc2ccccc12)Nc1ccccc1	-0.23
CC(C)(C)c1ccc(S(=O)(=O)NCC(=O)N2CCN(C(=O)c3ccco3)CC2)cc1	-0.06
COCCC(=O)N1CCC(Oc2ccc(C(=O)NCc3cc(C)n(C)n3)cc2)CC1	0.01
O=C(NNC(=S)Nc1ccccc1)c1cccc(S(=O)(=O)N2CCOCC2)c1	0.12
O=C(Cc1ccc(Br)cc1)N1CCc2ccccc2C1	0.73
